Marburg entry inh = qHTS for inhibitors of binding or entry into cells for Marburg Virus; Marburg virus pseudotyped entry inhibition, cell reporter; control for the full effect not named in the record; about a third of the inactives were read at about 46 µM; Potency, µM (series often up to 37.8 µM), for inactives: at the highest dose activity change, negative = inhibition, actives largely listed as inhibitors; actives 1.8% (n = 300,000); AID 540276, 2011; active = well fitted inhibition curve with a large enough effect; inconclusive = small, poorly fitted or top-dose-only effect, or effect the other way; inactive = flat fitted curve, though single readings scatter; tested in HEK293 cells; about a fifth of its hits are not listed in these tables; note: % is set by controls: 0 for no effect and ±100 for the full control effect; luciferase read-out
StopGo reporter = High Throughput Screening for Foot and Mouth Disease Virus Antivirals | Potency, µM (doses to about 57.9 µM), without a hit: at the highest dose signal change, negative = less light | actives 1.2% (n = 410,000) | human cells with a luciferase reporter of 2A StopGo recoding; control for the full effect not named in the record | AID 1159524, 2015; active = well fitted falling curve with a large enough effect; inconclusive = small, poorly fitted or top-dose-only effect; inactive = no such curve, though single readings can be large or run the other way; tested in HEK293T cells; note: % is set by controls: 0 for no effect and ±100 for the full control effect; nearly all actives have a fitted effect of over 45% in size; luciferase light after 4 h
Lassa entry inh = qHTS for Inhibitors of binding or entry into cells for Lassa Virus | Lassa virus pseudotype entry inhibition, cell reporter; control for the full effect not named in the record | Potency, µM (series often up to 37.9 µM), without a hit: at the highest dose activity change, negative = inhibition, usual class: inhibitors | actives 1.2% (n = 300,000) | AID 540256, 2011; active means well fitted inhibition curve with a large enough effect; inconclusive means small, poorly fitted or top-dose-only effect, or effect the other way; inactive means flat fitted curve, though single readings scatter; tested in HEK293 cells; note: % is set by controls: 0 for no effect and ±100 for the full control effect; nearly all actives have a fitted effect of over 50% in size; luciferase read-out
RE007 growth inh = qHTS Assay for Inhibitors of the HIV-1 protein Vpr. AID 651644, 2012. actives 0.21% (n = 360,000). S. pombe RE007 Vpr strain, BacTiter-Glo ATP luminescence, 24 h; control for the full effect not named in the record. Potency, µM (top dose mostly 92.2 µM), for inactives: at the highest dose activity change, negative = less growth; active = well fitted falling curve with a large enough effect; inconclusive = small, poorly fitted or top-dose-only effect; inactive = no such curve, though single readings can be large or run the other way;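 note: % is set by controls: 0 for no effect and ±100 for the full control effect; nearly all actives have a fitted effect of over 50% in size; the assay follows cell death caused by Vpr and the record does not say whether a fall means rescue or toxicity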
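Fission yeast RE007 carrying one integrated HIV-1 vpr copy, seeded at OD 0.01 in PMG+AL medium with 23 nL pinned compound. Grown 24 h at 30 degrees; viability read by BacTiter-Glo luminescence after 5 min.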
SARS PLpro yeast = qHTS of Yeast-based Assay for SARS-CoV PLP; S. cerevisiae expressing SARS-CoV PLpro, growth rescue; control for the full effect not named in the record; Potency, µM (highest dose often 32.9 µM), for inactives: top-dose activity, positive = growth rescue; actives 0.19% (n = 330,000); note: 0% is about no effect; nearly all actives have a fitted effect of over 55% in size; growth read by luminescence after 48 h
NS1 function inh = qHTS Assay for Inhibitors of Influenza NS1 Protein Function. AID 2326, 2010. Potency, µM (doses to about 46.1 µM), without a hit: at the highest dose activity, positive = more growth. S. cerevisiae slowed by influenza A NS1, growth recovery by OD600. actives 0.4% (n = 270,000); note: actives are rising curves; nearly all actives have a fitted effect of over 50% in size
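Growth recovery, yeast-based: influenza A NS1 expressed in S. cerevisiae causes slow growth, and suppressors are detected by OD600. The parent strain without NS1 is used as positive control.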
* marks the source's active call; other numbers are inactive results; ? = inconclusive; . = not tested or not shown; [ ] = dose if it differs, or a comment. Unless noted, calls come from the whole dose curve; as a rule, active means well fitted rising curve with a large enough effect; inconclusive means small, poorly fitted or top-dose-only effect; inactive means no such curve, though single readings can be large or run the other way. Potency is the fitted concentration of half-maximal effect. The list is partial (hit frequency here may not be typical).

The line under a structure holds: NS1 function inh, Marburg entry inh, Lassa entry inh, StopGo reporter, SARS PLpro yeast, RE007 growth inh
- CC(Nc1oc(-c2ccccc2)nc1C(C)(C)C)c1ccccc1 (stereo not drawn)
 : ., -4.8%[14.2 µM], ?, ., ., .
- CC(=O)C1=C(C)N(CC#C[Si](C)(C)C)C(=O)N(C(C)=O)C1c1ccccc1 (stereo not drawn)
 : ., -11.8%[14.2 µM], ?, ., ., .
- CC=COC(=O)N[C@@H](c1ccccc1)[C@]1(C(C)=O)CCCC1=O
 : ., -5.8%[14.2 µM], ?, ., ., .
- C(=N\Nc1nc(-c2ccccn2)nc2ccccc12)/c1ccccc1
 : 2.9%, ., ., ., -1.3%, -22.1%
- CCn1c(-c2ccccc2F)nc2cc(NC(C)=O)cc(C(=O)NCc3ncc(C)[nH]3)c21
 : ., ., ., 4.2%, ., .
- CCN1CCCC1CNC(=O)c1cnn(-c2nccc(-c3cccs3)n2)c1C(C)C (stereo not drawn)
 : ., ., ., 3.1%, ., .
- Cc1onc(-c2ccccc2)c1C(=O)NCCN1Cc2ccccc2OC(c2ccsc2)C1 (stereo not drawn)
 : ., ., ., -19.1%, ., .
- CC(C)C[C@H](N)C(=O)N[C@H](C(=O)N[C@H](C(=O)N[C@@H](Cc1ccc(O)cc1)C(=O)N1CCC[C@H]1C(=O)N[C@@H](Cc1c[nH]c2ccccc12)C(=O)N[C@H](C(=O)N[C@@H](CCC(N)=O)C(=O)N[C@@H](CCCN=C(N)N)C(=O)O)[C@@H](C)O)C(C)C)C(C)C
 : ., ., ., -12.2%[6.7 µM], ., .
- COc1cc(=O)n2c(c1C(=O)NCc1nonc1C)CCN(C(=O)c1cccc(C)c1C)CC2
 : ., ., ., -1.7%, ., .
- COC(=O)c1ccccc1-c1cc(C)cc2c1OC(CNC(=O)c1cc(C)on1)C2 (stereo not drawn)
 : ., ., ., -7.0%, ., .
- COc1cc2nc(N(C)C)c(CNCc3nonc3C)cc2c(OC)c1OC
 : ., ., ., -2.9%, ., .
- COc1cc(OC)c(OC)cc1CN1CCCC(c2[nH]ncc2-c2cccc(C(F)(F)F)c2)C1 (stereo not drawn)
 : ., ., ., -6.6%, ., .
- COc1ccccc1-c1cc2c(c(OC)c1)OCCN(C(=O)Cn1nc(-c3ccccc3)c3ccccc3c1=O)C2
 : ., ., ., -8.6%, ., .
- COc1ccc(CN2CCCC(n3cc(C(=O)NC4CCCC4)nn3)C2)c2ccccc12 (stereo not drawn)
 : ., ., ., -5.6%, ., .
- CN(C(Cc1ccc(OS(=O)(=O)c2cccc3cnccc23)cc1)C(=O)N1CCN(c2ccccc2)CC1)S(=O)(=O)c1cccc2cnccc12 (stereo not drawn)
 : ., ., ., -18.9%, ., .
- Cc1ccc(-c2ccnc(-n3ncc(C(=O)NCCN4CCOCC4)c3C3CC3)n2)o1
 : ., ., ., -21.0%, ., .
- COCC1CCCN(c2nc(CN3CCN(C(=O)c4ccco4)CC3)nc3ccccc23)C1 (stereo not drawn)
 : ., ., ., 3.5%, ., .
- COCCN1CCN(C(=O)c2cnn(-c3ncc4c(n3)-c3ccc(OC)cc3CC4)c2C2CC2)CC1
 : ., ., ., -21.6%, ., .
- OCCN1CCN(Cc2ccc3c(c2)CN(Cc2cnc(-c4ccccc4)s2)CCO3)CC1
 : ., ., ., -10.5%, ., .
- Cc1oc(-c2cccc(NC(=O)c3ccccn3)c2)nc1CNC(=O)c1cc(F)c(F)cc1F
 : ., ., ., 28.8%, ., .
- Cc1ncc2c(c1CNC(=O)CN1CCCCC1)CCN(C(=O)c1ccc(F)cc1Cl)C2
 : ., ., ., 4.9%, ., .
- CC1c2ccccc2CN1CC1=NCCN1 (stereo not drawn)
 : ., ., ., 1.4%, ., .
- Cc1oc(-c2ccccc2NC(=O)c2ccccc2)nc1CNC(=O)c1cccc(-n2cccn2)c1
 : ., ., ., 0.7%, ., .
- Cc1cc2c(c(-c3nc4ccccc4s3)c1)OC(CNC(=O)c1occc1C)C2 (stereo not drawn)
 : ., ., ., 13.5%, ., .
- Cn1nc(Cc2cccc3ccccc23)c(C#N)c1N
 : ., ., ., 0.0%, ., .
- COc1cccc(C(=O)N(Cc2cc3cc4c(cc3nc2N(C)C)OCO4)CC2CCCO2)c1 (stereo not drawn)
 : ., ., ., 11.0%, ., .
- Cc1ncc(Cc2ccccc2)c(C2CCN(S(=O)(=O)C[C@]34CC[C@H](CC3=O)C4(C)C)CC2)n1
 : ., ., ., 46.2%[activator], ., .
- COc1ccc(-c2ccnc(-n3ncc(C(=O)NC(C)(C)CO)c3C3CC3)n2)cc1F
 : ., ., ., 42.5%[activator], ., .
- Cc1nn(C)c(Cl)c1CN1CCOc2ccc(CN3CCC(Oc4cccnc4)CC3)cc2C1
 : ., ., ., ?, ., .
- Cc1cc(C(=O)Nc2cccc(-c3nc(CNC(=O)c4cnccn4)c(C)o3)c2)c(C)o1
 : ., ., ., -25.3%, ., .

Whole records from above. Order of values: NS1 function inh	Marburg entry inh	Lassa entry inh	StopGo reporter	SARS PLpro yeast	RE007 growth inh
CC=COC(=O)N[C@@H](c1ccccc1)[C@]1(C(C)=O)CCCC1=O in the list: .	-5.8%[14.2 µM]	?	.	.	.
CC(Nc1oc(-c2ccccc2)nc1C(C)(C)C)c1ccccc1 (stereo not drawn) in the list: .	-4.8%[14.2 µM]	?	.	.	.
COc1cc2nc(N(C)C)c(CNCc3nonc3C)cc2c(OC)c1OC in the list: .	.	.	-2.9%	.	.
COc1ccc(-c2ccnc(-n3ncc(C(=O)NC(C)(C)CO)c3C3CC3)n2)cc1F in the list: .	.	.	42.5%[activator]	.	.

Following part:
The line under a structure holds: NS1 function inh, Marburg entry inh, Lassa entry inh, StopGo reporter, SARS PLpro yeast, RE007 growth inh
- CC#CC(=O)Nc1cc2c(Nc3ccc(F)c(Cl)c3)ncnc2cn1
 : ., ., ., ?, ., .
- CCC1CN(CCNC(=O)c2cccnc2C)Cc2cc(OC)ccc2O1 (stereo not drawn)
 : ., ., ., 0.3%, ., .
- O=C(NCCN1Cc2ccccc2OC(c2ccsc2)C1)c1cncs1 (stereo not drawn)
 : ., ., ., -6.2%, ., .
- Cc1ccsc1CN(C)c1ncnc2ccc(-c3ccoc3)cc12
 : ., ., ., ?, ., .
- COc1ccccc1C(=O)N[C@@H]1c2ccccc2C2(CCN(Cc3cccnc3)CC2)[C@H]1O
 : ., ., ., -5.8%, ., .
- COC(=O)[C@@H]1CCCN1C(=O)c1c(OC)cc(=O)n2c1CCN(Cc1ccc3cccnc3c1)CC2
 : ., ., ., 1.6%, ., .
- Cc1cnc(-n2ncc(C(=O)N(C)Cc3cccc4ncccc34)c2C(C)C)nc1-c1ccc(F)cc1
 : ., ., ., -16.6%, ., .
- Oc1ccc2c3c1O[C@H]1c4c(c5ccccc5n4Cc4ccccc4)C[C@@]4(O)C(C2)N(CC2CC2)CC[C@]314
 : ., ., ., -29.9%, ., .
- COC(=O)[C@@H]1CCCN1C(=O)c1cnn(-c2nccc(-c3cc(C)sc3C)n2)c1C1CC1
 : ., ., ., 29.5%, ., .
- O=C(CCCCCCC(=O)Nc1ccccc1)NO
 : ., ., ., 4.7%, ., .
- OC(c1ccc2c(c1)CN(Cc1cccn1-c1cccnc1)CCO2)C1CCCCC1 (stereo not drawn)
 : ., ., ., 1.7%, ., .
- O=C1CC[C@@H](C(=O)NCC2Cc3cc(Cl)cc(-c4ccc5[nH]ccc5c4)c3O2)N1 (stereo partly drawn)
 : ., ., ., -15.1%, ., .
- Cc1cccc(C(=O)N2CCOc3ccc(CN(C)Cc4cc(C5CC5)n[nH]4)cc3C2)n1
 : ., ., ., -7.7%, ., .
- CCN1CCCC1CNC(=O)c1cnn(-c2nccc(-c3ccco3)n2)c1C1CC1 (stereo not drawn)
 : ., ., ., -5.8%, ., .
- Cc1ccc2oc(NC3=NC4(CCCC4)C4=C(CCCC4=O)N3)nc2c1
 : ., ., ., 0.0%, ., .
- CCCCC/C=C\C=C\[C@H](O)CCCCCCCC(=O)O
 : ., ., ., -6.8%[0.463 µM], ., .
- CC(C)c1c(C(=O)N(C)Cc2cccc3ncccc23)cnn1-c1nccc(-c2ccco2)n1
 : ., ., ., ?, ., .
- Cc1ccc2c(c1)cc(CN(C)Cc1nc(C)cs1)c(=O)n2C
 : ., ., ., 6.0%, ., .
- Cc1nc2sccn2c1CN1CCC2(CC1)CC2C(=O)Nc1ccc2c(c1)OCO2 (stereo not drawn)
 : ., ., ., -6.4%, ., .
- Cc1nc(NCc2cccc3c2OCO3)sc1-c1ccn(CC2CCCN(C)C2)n1 (stereo not drawn)
 : ., ., ., 33.5%[activator], ., .
- COc1ccc(CN2CCOc3c(cc(-c4ccc(OC)nn4)cc3OC)C2)c(O)c1
 : ., ., ., 8.6%, ., .
- Cc1cc(C(=O)NCC2CCC3(CCN(Cc4ccc5ccccc5c4)CC3)O2)n(C)n1 (stereo not drawn)
 : ., ., ., -29.0%, ., .
- CCC1(C2CCN(C(=O)c3ccc(C)c(C)c3)CC2)NC(=O)N(CCc2scnc2C)C1=O (stereo not drawn)
 : ., ., ., 11.7%, ., .
- Cn1ccnc1C1CCCCN1C(=O)CN1Cc2ccccc2OC(c2ccccc2F)C1 (stereo not drawn)
 : ., ., ., -3.3%, ., .
- NC(C(=O)O)c1cc(O)cc(O)c1 (stereo not drawn)
 : ., ., ., 4.9%, ., .
- O=C(O)c1cc(O)c2c(c1)[C@H]([C@H]1c3cc(C(=O)O)cc(O)c3C(=O)c3c(O[C@@H]4O[C@H](CO)[C@@H](O)[C@H](O)[C@H]4O)cccc31)c1cccc(O[C@@H]3O[C@H](CO)[C@@H](O)[C@H](O)[C@H]3O)c1C2=O
 : ., ., ., -24.2%, ., .
- COc1ccc2c(c1)CCc1cnc(-n3ncc(C(=O)N4CCN(CCO)CC4)c3C3CC3)nc1-2
 : ., ., ., -8.9%, ., .
- CC(NC(=O)c1cccnc1)c1nnc2n1CCN(Cc1ccc(-c3ccccc3Cl)o1)CC2 (stereo not drawn)
 : ., ., ., 10.9%, ., .
- COc1cc(OC)c(CN2CCOc3ccc(CN4CCC(O)CC4)cc3C2)c(OC)c1
 : ., ., ., -11.5%, ., .
- Cc1cc(=O)oc2cc(NC(=O)C(CCCCN)NC(=O)C(CC3CCCCC3)NC(=O)OCC3c4ccccc4-c4ccccc43)ccc12 (stereo not drawn)
 : ., ., ., -7.9%, ., .
- O=C(c1cc(-c2ccccc2)on1)N1CCOc2ccc(CN3CCOCC3)cc2C1
 : ., ., ., 2.6%, ., .
- O=C(NCCN1CCOCC1)c1cnn(-c2nccc(-c3ccccc3C(F)(F)F)n2)c1C1CC1
 : ., ., ., -1.1%, ., .
- COc1ccc(C(=O)NCC2Cc3cccc(-c4ccc(S(C)(=O)=O)cc4)c3O2)c(OC)n1 (stereo not drawn)
 : ., ., ., -15.0%, ., .
- CC(N)CCCP(=O)(O)O (stereo not drawn)
 : ., ., ., 12.1%, ., .
